# High-throughput results from PubChem.
# nsP2pro inh: CHIKV nsP2 protease inhibition, primary qHTS. Q8JUX6. FRET peptide cleavage, nsP2pro, fluorescence 1 h. Potency, µM (highest dose often 24.9 µM), inactives show at the highest dose activity change, negative = inhibition, most hits filed as inhibitors. 1.1% of 31,000 active. AID 1964107; active means well fitted inhibition curve with a large enough effect; inconclusive means small, poorly fitted or top-dose-only effect; inactive means no such curve, though single readings can be large or run the other way; further: nearly all actives have a fitted effect of over 60% in size; a reference inhibitor and vehicle were the controls
# Numbers without * were called inactive; i = inactive; ? = inconclusive; & = joins results of further samples; [ ] = another dose, or the depositor's remark. On the % scale 0 is the no-effect control and ±100 the full control effect; potency means the concentration at half of the fitted maximal effect. A portion of the library (hit frequency here may not be typical).
SMILES,nsP2pro inh
O=C(c1ccccc1)N1CC2(CCCN2CC2CC2)Cc2ccccc21 (centres undefined),?
CC1=C(C(=O)N2CCN(c3cccc(C(F)(F)F)c3)CC2)C2(CCCCC2)OC1=O,-21%
O=C1CCC(N2C(=O)c3ccccc3C2=O)C(=O)N1 (centres undefined),-10%&-5%
CN1CCN2c3ncccc3Cc3ccccc3C2C1 (centres undefined),-4%
O=C(c1cc(-c2ccc(Cl)cc2)on1)N(Cc1ccc(F)cc1)Cc1ccco1,-8%
Cc1cccc(CC(=O)N[C@@H]2CN(c3ccncn3)C[C@H]2CO)c1,4%
COc1ccc2c(Oc3ccc(NC(=O)c4c(C)n(CC(C)(C)O)n(-c5ccccc5)c4=O)nc3)ccnc2c1,-27%
COc1ccc(-n2ncc3c2CCCC3NC(=O)c2cnc(C)cn2)cc1 (centres undefined),-7%
O=C(CCn1c(=O)c2cccn2c2ccc(F)cc21)NCCc1ccccc1,-25%
CNC(C)C(O)c1ccccc1 (centres undefined),-2%
N#Cc1cccc(C#N)c1-c1nc2c3ccccc3c3cc(Cl)ccc3c2[nH]1,-8%
Cc1ccc(C(=O)N2CCc3cc(-c4nc(NC(=O)Cc5ccc6c(c5)OCO6)sc4C)ccc32)cc1,i
NC(=O)C1CCN(c2nc(-c3cccc(C(F)(F)F)c3)cs2)CC1,-12%
O=C(O)CC1(O)C(=O)Nc2ccccc21 (centres undefined),334%[activator][39.2 µM]
CCN1C(=O)c2ccccc2S(=O)(=O)c2ccc(C(=O)NCc3ccccc3Cl)cc21,-15%
CSCC(=O)N[C@H]1CCN2C(=O)c3cc(-c4ccc(Cl)cc4)ccc3NC(=O)[C@H]12,i
C=CC(=O)Nc1ccc(CN2C(=O)N(c3cc(OC)cc(OC)c3)Cc3cnc(Nc4ccc(N5CCN(C)CC5)cc4)nc32)cc1,45%[activator]
Cc1c(Cl)cccc1NC(=O)C(=O)NCCc1csc2nc(-c3ccccc3F)nn12,-18%
O=C1CCc2cc(S(=O)(=O)NCc3ccc(F)cc3)cc3c2N1CC3,-11%
COCc1nc(C2CC(NC(=O)CN3C(=O)CN(C)C3=O)C2)cc(=O)[nH]1 (centres undefined),-11%
NNCCc1ccccc1,12%
COc1cc(/C=C/C(=O)OC2CC(C)=C(C(=O)O)/C2=C/CO[C@@H]2O[C@H](CO)[C@@H](O)[C@H](O)[C@H]2O)ccc1O (some centres undefined),42%[10 µM]
C[C@@H](O)[C@H](N)C(=O)N1CCC[C@H]1C(=O)N1CCC[C@H]1C(=O)N[C@H](C(N)=O)[C@@H](C)O,-4%[5.1 µM]
CSc1ccc(CCNC(=O)c2ccc(CS(=O)(=O)c3ccc(Br)cc3)o2)cc1,1%
Fc1ccc(CNc2ncnc3ccc(F)cc23)cc1,-1%&-6%
COC(=O)c1cc(S(=O)(=O)N2CCN(c3cccc(C)c3)C(C)C2)cn1C (centres undefined),-19%
Cc1ccccc1NC(=O)c1c(NC(=O)c2ccccc2)sc2c1CCC2,-13%
COCCOc1ccnc(-c2noc([C@@H]3CCCN3Cc3ccncc3)n2)c1,1%[39.2 µM]
NC1CCC(Nc2cc(-c3cccc(NCc4cccc(F)c4)n3)c(Cl)cn2)CC1 (centres undefined),211%[activator]
CC(C)(C)OC(=O)CC(=O)NNC(=O)c1cc2ccccc2[nH]1,-4%
Nc1c(C(=O)Nc2ccccc2Cl)c2ccccn2c1C(=O)c1ccccc1,-18%
O=C(NCc1ccccn1)Nc1nnc(-c2ccco2)o1,-14%
Cc1nc(-c2ccc(CNC(=O)CN3CCN(c4ncccn4)CC3)cc2)no1,i
COc1cccc(Nc2nc3cc(C)ccc3nc2NS(=O)(=O)c2ccc(Cl)cc2)c1,-20%
CCCS(=O)(=O)Nc1cccc(-c2cn3ccc(C)cc3n2)c1,-8%
Fc1ccccc1-c1nc2ccn(Cc3ccc(-c4ccc(C(F)(F)F)cc4C(F)(F)F)nn3)cc-2n1,26%
CCc1ccc(NC(=O)c2[nH]c(C)c(C(C)=O)c2C)cc1S(=O)(=O)Nc1ccc(C#N)cc1,i
Cc1noc(-c2cccc(OC3CN(C(=O)c4ccco4)C3)c2)n1,0%
O=C(c1ccc(F)c(Cl)c1)N1CC(CO)C2(CCNCC2)C1 (centres undefined),-1%
NCCCC(=O)N1CCC2(CC1)CN(C(=O)Cc1ccccc1)CCO2,?
CCC(C)(C)C(=O)N1CCC2(CC1)N(C)C(=O)CS2(=O)=O,2%
CN1CCN(C(=O)c2cc(C3CC3)[nH]n2)CC12CCNC(=O)CC2 (centres undefined),i
O=C(NCc1ccco1)c1ccc2c(c1)N(Cc1ccccc1F)C(=O)c1ccccc1S2(=O)=O,-20%
NS(=O)(=O)c1ccc(F)c(C(=O)NCCSc2ccccn2)c1,-3%
CC(C)Cn1nc(NC(=O)c2cccc(Cl)c2)c2cc3ccccc3nc21,?
Cc1noc2c(NC3CCOCC3)cc(-c3ccsc3)nc12,2%[39.2 µM]
CC(=O)N1CCC2(CC1)CN(C(=O)Cc1cccc(Cl)c1)CCO2,-14%
COC1=C(C(=O)OCc2ccccc2)N(c2c(C)cccc2C)[S+](=O)([O-])c2ccccc21,-14%
O=C1Nc2ccccc2C2(CCN(C(=O)c3ccccc3F)C2)O1 (centres undefined),-15%[39.2 µM]
O=c1c2sc3ccccc3c2n(Cc2ccccc2)c(=O)n1CCc1ccccc1,-26%
O=C(Cn1c(=O)n(CC2CCC(C(=O)NCCc3ccccc3)CC2)c(=O)c2ccccc21)Nc1cccc(F)c1 (centres undefined),-17%
CCC1(N2CCN(C(=O)c3ccccc3C(F)(F)F)CC2)CCN(C(=O)C(C)C)C1 (centres undefined),-2%
COC[C@H]1OC(=O)c2coc3c2[C@@]1(C)C1=C(C3=O)C2CCC(=O)[C@@]2(C)C[C@H]1OC(C)=O (some centres undefined),9.9µM*
O=C(CCCn1cncn1)NC1CC(c2cc(N3CCOCC3)ncn2)C1 (centres undefined),i
C#CCSc1nc(-c2ccccc2)c2cc(Cl)ccc2n1,-3%
Cc1ncsc1C(=O)N1CCC(C(=O)O)(n2ccc(-c3ccco3)n2)CC1,-14%
Oc1cc(O)c2c(c1)O[C@H](c1ccc(O)c(O)c1)[C@H](O)C2,0%
COc1ccc2c(c1)CC[C@@H]1[C@@H]2CC[C@]2(C)[C@@H](NCCCCCCN3C(=O)C=CC3=O)CC[C@@H]12,-5%
Nc1ccc(S(=O)(=O)Nc2nccs2)cc1,7%&-4%
O=C(/C=C/c1ccc(O)cc1)OC1[C@H](O)CC(O)(C(=O)O)C[C@H]1O (some centres undefined),-12%

# Part of the list above in another layout.
SMILES	nsP2pro inh
CSc1ccc(CCNC(=O)c2ccc(CS(=O)(=O)c3ccc(Br)cc3)o2)cc1	1%
Fc1ccc(CNc2ncnc3ccc(F)cc23)cc1	-1%&-6%

# Later entries:
SMILES,nsP2pro inh
COc1ccc(-c2nc(C3CC(=O)N(c4ccc(C)cc4)C3)no2)cn1 (centres undefined),3%
COc1nc2sc(C(=O)NC3CC3)c(N)c2c(C)c1Cl,-4%
CNC(=O)[C@@H]1C[C@@H](O)CN1C1CCN(C(=O)CCc2nc3ccccc3s2)CC1,?
COc1cc(CO)cc(OC)c1O[C@@H]1O[C@H](CO)[C@@H](O)[C@H](O)[C@H]1O,?
COc1c(O)cc2c(c1O)C(=O)O[C@H](C)[C@H]2O,-8%
Cc1ccc(N2CCN(C(=O)c3c(C)oc4ncnc(N5CCOCC5)c34)CC2)c(C)c1,-20%
CC(c1cccs1)N(C)Cc1ccc(C(F)(F)F)cc1 (centres undefined),-1%[39.2 µM]
CC(C)(C)c1cc(C[C@@H]2C[C@H](NS(C)(=O)=O)C2(C)C)no1,?
COc1cccc(NS(=O)(=O)c2ccc3[nH]cc(C(=O)N(C)Cc4ccco4)c(=O)c3c2)c1,-19%
CCCSc1ncnc2c1c(-c1ccccc1)cn2-c1ccccc1OC,?
CN1CC[C@H](N(Cc2ccccc2)Cc2ccccc2)C[C@H](O)C1,-7%
O=C1c2ccccc2C(=O)N1c1nccs1,3%
O=C1O[C@@H]2CN(c3ncccn3)C[C@@H]2N1CCc1ccc(F)cc1,i
Cc1ccccc1-c1nc(CS(=O)(=O)CC(=O)NCC(C)c2ccccc2)c(C)o1 (centres undefined),-17%
COc1ccccc1NC(=O)Cn1c(=O)n(Cc2ccc3c(c2)OCO3)c(=O)c2oc3ccccc3c21,-9%

# Quoted from the listing (15 entries):
SMILES,nsP2pro inh
COc1ccc(-c2nc(C3CC(=O)N(c4ccc(C)cc4)C3)no2)cn1 (centres undefined),3%
COc1nc2sc(C(=O)NC3CC3)c(N)c2c(C)c1Cl,-4%
CNC(=O)[C@@H]1C[C@@H](O)CN1C1CCN(C(=O)CCc2nc3ccccc3s2)CC1,?
COc1cc(CO)cc(OC)c1O[C@@H]1O[C@H](CO)[C@@H](O)[C@H](O)[C@H]1O,?
COc1c(O)cc2c(c1O)C(=O)O[C@H](C)[C@H]2O,-8%
Cc1ccc(N2CCN(C(=O)c3c(C)oc4ncnc(N5CCOCC5)c34)CC2)c(C)c1,-20%
CC(c1cccs1)N(C)Cc1ccc(C(F)(F)F)cc1 (centres undefined),-1%[39.2 µM]
CC(C)(C)c1cc(C[C@@H]2C[C@H](NS(C)(=O)=O)C2(C)C)no1,?
COc1cccc(NS(=O)(=O)c2ccc3[nH]cc(C(=O)N(C)Cc4ccco4)c(=O)c3c2)c1,-19%
CCCSc1ncnc2c1c(-c1ccccc1)cn2-c1ccccc1OC,?
CN1CC[C@H](N(Cc2ccccc2)Cc2ccccc2)C[C@H](O)C1,-7%
O=C1c2ccccc2C(=O)N1c1nccs1,3%
O=C1O[C@@H]2CN(c3ncccn3)C[C@@H]2N1CCc1ccc(F)cc1,i
Cc1ccccc1-c1nc(CS(=O)(=O)CC(=O)NCC(C)c2ccccc2)c(C)o1 (centres undefined),-17%
COc1ccccc1NC(=O)Cn1c(=O)n(Cc2ccc3c(c2)OCO3)c(=O)c2oc3ccccc3c21,-9%

# Next compounds follow.
SMILES,nsP2pro inh
CCOCCCNC(=O)C(c1ccc(OC)cc1)N(Cc1cccs1)C(=O)c1ccc(NC(C)=O)cc1 (centres undefined),3%
CC(C)(C)NC(=O)[C@H]1CC[C@H]2[C@@H]3CC[C@H]4NC(=O)CC[C@]4(C)[C@H]3CC[C@]12C,20%
CC(=O)NCC(=O)N1c2ccccc2CC1c1nc(C(C)C)no1 (centres undefined),0%
CCOc1cccc(C2CC(=O)Nc3cc4c(cc32)OCCO4)c1 (centres undefined),-16%
COCCCNc1nc2c(c(=O)n(C)c(=O)n2C)n1Cc1ccccc1,-19%
C[C@@H]([C@H](O)c1ccccc1)N(C)C,-9%
COc1ccccc1CNC(=O)CC1COCCN1C(=O)c1cnccn1 (centres undefined),i
Cc1ccc2[nH]c(=O)c3cc(C(=O)NC4CCC(C)CC4)sc3c2c1 (centres undefined),-23%
Cc1nc(C(=O)N2CC(F)(F)C[C@H]2c2nnc(C3CC3)o2)co1,5%
CCOc1ccc(CN2CCC(c3nnc(Cn4cncn4)n3C)CC2)cn1,4%
Cc1ccc(S(=O)(=O)Nc2cnccc2C(=O)Nc2nc(-c3ccc(Cl)cc3)cs2)cc1,i
O=S(=O)(Nc1nccs1)c1ccc(NCc2cc(F)ccc2O)cc1,i
CN(C)CCNC(=O)c1ccc(-c2nnc3ccc(NC(=O)C4CCC4)cn23)cc1,1%
O=C(CC1CCCN(c2cn[nH]c(=O)c2)C1)N1CCCCCC1 (centres undefined),0%
COc1ccc(NC(=O)N2CC(N(C3CCOCC3)S(C)(=O)=O)C2)cc1F,3%
O=C1CCCC2=C1C(c1ccc(Cl)cc1)N=C(Nc1nc3ccccc3o1)N2 (centres undefined),-4%
NC(=O)c1ccccc1O,-4%
CC1(C(=O)O)CCCC2(C)C1CCC13CC(CCC21)C1(CO)OC31 (centres undefined),0%
Cc1ccc2c(c1)NC(=O)c1cccnc1O2,-14%
O=C(O)c1c(-c2ccccc2)no[n+]1[O-],-10%
Cc1ccc2c(Sc3ccc(Cl)cc3)c(C(=O)N3CCCCC3)[nH]c2c1,-9%
O=C(Nc1nc(-c2ccccc2)cs1)c1ccccc1Cl,i
CC(C)c1noc(C2CCCN(S(=O)(=O)c3cccs3)CCC(=O)NCC2)n1 (centres undefined),4%
O=[S+]1([O-])[C@@H](c2ccccc2)[C@H](COCc2ccccc2)CN1C1CC1,-6%
CCCCOc1ccc(-c2cc3c(=O)n(CC(=O)Nc4ccc(Cl)cc4Cl)ccn3n2)cc1,-28%
N#Cc1c(Nc2cccc(F)c2)sc(C(=O)c2ccc(Cl)cc2)c1N,?
CCCN1CCN(C(=O)C2(c3ccc(NC(=O)C4CC4)cc3)CCCCC2)CC1,0%
CCOC(=O)c1ccc(NC(=O)CCCc2nc(-c3cc(OC)c(OC)c(OC)c3)no2)cc1,-5%
Cc1ccc(NC(=O)CN2C(=O)C(C)(C)c3cc(S(=O)(=O)N4CCCCC4)ccc32)c(Br)c1,-12%
CCc1ccc(NC(=O)CSc2ccc(-c3sc(-c4ccccc4)nc3C)nn2)cc1,-23%
Cc1cc(C)nc(NC(=S)N2CCN(c3nnc(C(F)(F)F)s3)CC2)c1,-2%
COc1ccccc1CCC(=O)N1CC(F)(F)C[C@H]1c1nnc(C)o1,-2%
COc1ccc(-c2noc([C@@H](C)NCc3ccc(F)cc3)c2C(=O)O)cc1,-2%[39.2 µM]
COc1cc(C)cc(C(C(=O)O)N2CCN(c3cnccn3)CC2)c1OC (centres undefined),-3%
Cc1cccc(Cn2c(-c3cccs3)nc3ccccc32)c1,-11%
COc1cc(O)c(C(CC(=O)N2CCCC(C)(C)C2)c2ccc3c(c2)OCO3)c(OC)c1 (centres undefined),i
COC(=O)C(NC(=O)CCc1c(C)nc2c(c(C)nn2-c2ccccc2)c1C)C(C)C (centres undefined),-8%
c1ccc(Cc2nnc([C@H]3CCN(CC4CCCCC4)C3)o2)cc1,i
CSCCC(=O)N1CCc2[nH]nc(-c3ccc(C(F)(F)F)cc3)c2C1,i
Cc1nc(-c2ccc(S(=O)(=O)N3CCN(c4cc(Cl)ccc4C)CC3)cc2)co1,-8%
CC(=O)Nc1sc2c(c1-c1ccc3c(c1)OCO3)CCNC2,-5%
O=C(Nc1nnc(-c2cccs2)o1)c1ccc(Cl)cc1,i
